KCNQ2 enhance: enhances the rat KCNQ2 potassium channel. O88943. B-score at 10 µM. CHO-K1 KCNQ2, FluxOR thallium flux fluorescence; active compounds read high. AID 2239. 310,000 tested, 0.54% active;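 active = fluorescence ratio B-score at least 3 SD of library B-scores, with initial fluorescence B-score within 3 SD, cut at about 5.3 in these data; same plate scores as AID 2156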;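 also: B-score of peak minus minimum over baseline fluorescence ratio after K+ and Tl+ stimulus; positive B-score means potentiation of KCNQ2 with more thallium influx and brighter signal; only the inactives scoring about 0 or higher are listed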
Target sequence (O88943 whole entry, looked up): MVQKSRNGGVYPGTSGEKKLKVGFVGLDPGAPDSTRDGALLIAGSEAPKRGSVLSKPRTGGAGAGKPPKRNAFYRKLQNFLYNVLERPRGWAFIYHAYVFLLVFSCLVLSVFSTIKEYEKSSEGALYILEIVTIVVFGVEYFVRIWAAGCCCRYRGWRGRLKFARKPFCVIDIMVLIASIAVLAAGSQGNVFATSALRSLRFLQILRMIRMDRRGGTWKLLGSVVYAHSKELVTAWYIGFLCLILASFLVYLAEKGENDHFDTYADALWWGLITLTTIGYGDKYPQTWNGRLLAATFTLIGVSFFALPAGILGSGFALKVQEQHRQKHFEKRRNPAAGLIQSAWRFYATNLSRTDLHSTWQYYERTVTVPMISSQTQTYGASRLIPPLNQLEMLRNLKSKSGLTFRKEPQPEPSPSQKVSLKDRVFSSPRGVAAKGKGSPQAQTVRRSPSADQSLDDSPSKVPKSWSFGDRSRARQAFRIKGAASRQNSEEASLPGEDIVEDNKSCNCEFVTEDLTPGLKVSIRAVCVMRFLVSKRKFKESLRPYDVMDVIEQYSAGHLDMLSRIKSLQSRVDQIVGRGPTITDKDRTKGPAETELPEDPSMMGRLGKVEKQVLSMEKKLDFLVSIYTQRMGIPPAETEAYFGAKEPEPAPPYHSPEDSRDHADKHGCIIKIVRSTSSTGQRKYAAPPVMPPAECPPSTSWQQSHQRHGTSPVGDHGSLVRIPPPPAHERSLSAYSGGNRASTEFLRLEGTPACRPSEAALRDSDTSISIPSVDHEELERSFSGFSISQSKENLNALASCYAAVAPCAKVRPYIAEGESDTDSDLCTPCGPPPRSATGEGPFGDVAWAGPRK
KCNQ2 enhance baseline: also measured in KCNQ2 enhance; calls as there; B-score; compound at 10 µM; measured here: initial fluorescence intensity artifact check;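 brightness before thallium and not channel activity; 0 = typical well and far values either way flag optical interference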
An asterisk follows results filed as active.

SMILES	KCNQ2 enhance	KCNQ2 enhance baseline
COc1ccc(C2C(C#N)=C(N)OC3=C2C(=O)CCC3)c(OC)c1OC (centres undefined)	0.77	-0.05
Cc1cc(C(=O)CSc2nnc(-c3ccc(OC(F)F)cc3)o2)c(C)n1Cc1cccs1	1.8	-0.02
O=C1CCC([N+](=O)[O-])C(c2ccc(Cl)c([N+](=O)[O-])c2)N1 (centres undefined)	0.28	1.2
O=C(CN1C(=O)c2ccccc2C1=O)c1ccc(F)cc1	0.03	0
Cc1cc(/C=C2\SC(=O)N(CC(=O)Nc3ccccc3F)C2=O)c(C)n1C	0.65	-0.09
COc1ccccc1NC(=O)C1=C(C)NC(=O)NC1c1ccco1 (centres undefined)	0.56	-0.07
CC(=O)c1c(C)[nH]c(C(=O)Nc2ccc(S(=O)(=O)N(C)C)cc2)c1C	1.1	1.5
CCCOc1ccc(NC(=O)CC2C(=O)N(c3ccc(OCC)cc3)C(=S)N2C2CC2)cc1 (centres undefined)	0.35	-0.03
CCc1nnc(NC(=O)CN2C(=O)NC3(CC(C)CC(C)(C)C3)C2=O)s1 (centres undefined)	3	-0.61
CC(=O)c1noc(C)c1C(=O)Nc1nccs1	1.1	-0.66
NC(=O)[C@@H]1CCCN1C(=O)c1ccc2nc(Cc3ccccc3F)oc2c1	1.2	-0.11
CCc1cc2c3c(c(=O)oc2cc1O)CCCC3	1.9	-1.4
Cc1n[nH]c(=O)n1-c1ccc(OCc2ccccc2)cc1	0.43	-3.2
O=C(NCc1cccnc1)C(=O)NCC1OCCCN1S(=O)(=O)c1ccc(Cl)cc1 (centres undefined)	1	-2.4
CC(C)Oc1c(Br)cc(Br)cc1/C=N/NC(N)=S	0.22	0.32
CC(=O)c1cccc(NC(=O)NC2CC3CCCC(C2)N3CC(C)C)c1 (centres undefined)	1.4	-1.7
O=C(O)CSc1nccc2ccccc12	1.4	-0.22
COC(=O)CSc1nc(N2CCOCC2)c2c(c1C#N)CC(C)(C)OC2	0.39	-2.5
COc1ccc(S(=O)(=O)Nc2cc3c(cc2C(C)=O)OCO3)cc1	1.4	-0.69
O=C(COc1ccccc1)Nc1cccc2nsnc12	1.9	-1.7
Cn1c(=O)c2c(ncn2CC(=O)N2CCN(c3cccc(Cl)c3)CC2)n(C)c1=O	0.48	0
CC1(C)CC2(CCO1)OC(=O)CC2C(=O)Nc1ccc(Br)cc1 (centres undefined)	0.05	-1.2
CC(Sc1ncnc2c1cnn2-c1ccccc1)C(=O)NCC1CCCO1 (centres undefined)	0.69	-0.04
COc1cccc(/C=N/NC(=O)c2c(C)nc3ccc(Cl)cn23)c1O	0.42	0.99
C/C(=C1/SC(N2CC(C)OC(C)C2)=NC1=O)c1ccccc1 (centres undefined)	0.28	-0.18
CN(C)c1cccc(C(=O)OCC(=O)N2CCc3ccccc3C2)c1	0.31	0.15
O=C(/C=C/c1ccc(Br)cc1)NC(=O)c1ccccc1O	1.6	0.03
O=C1CCN(Cc2ccccc2)CCN1CCO	0.68	1
Cc1cc(C)c(OCC(=O)OCC(=O)N2CCCc3ccccc32)c(C)c1	2.8	0.02
CCCn1c(C)cc(C(=O)CSc2nc3nc(C)cc(C)n3n2)c1C	0.89	-2.6
COc1ccc2oc(=O)c(C(=O)N3CCN(c4ccccc4F)CC3)cc2c1	0.93	-0.01
O=C(NC(=S)N1CCN(C/C=C/c2ccccc2)CC1)c1ccc(Cl)nc1	2.6	1.5
O=C(O)/C=C/c1cn(-c2ncc(C(F)(F)F)cc2Cl)c2ccccc12	2.9	-0.79
CC(OC(=O)CSc1ccc([N+](=O)[O-])cc1)C(=O)NCc1ccco1 (centres undefined)	0.37	-0.76
Cc1cc(C)n(-c2nc3sc4c(c3c(=O)[nH]2)CCCC4)n1	18*	-0.24*
CC(=O)c1ccc(N2C(=NC(=O)C3CCCO3)SC3CS(=O)(=O)CC32)cc1 (centres undefined)	0.28	-1.8
O=C(C[n+]1cc(-c2ccc(F)cc2)n2c1CCC2)OCc1ccccc1	0.89	0.39
COc1ccc(CCN(Cc2cc3cccc(C)c3[nH]c2=O)C(=O)N2CCCC2)cc1OC	0.81	0.77
Cc1ccc(-c2csc(NC(=O)c3ccc(F)cc3)c2C(=O)O)cc1	3.6	0.82
CCCCCc1nc(N)c(C#N)c(-c2ccco2)c1CCCC	0.22	0.67

One compound at a time, as listed above. Order of values: KCNQ2 enhance	KCNQ2 enhance baseline
COc1ccc2oc(=O)c(C(=O)N3CCN(c4ccccc4F)CC3)cc2c1 is listed with 0.93	-0.01
Cc1cc(C)n(-c2nc3sc4c(c3c(=O)[nH]2)CCCC4)n1 is listed with 18*	-0.24*
COc1ccc(CCN(Cc2cc3cccc(C)c3[nH]c2=O)C(=O)N2CCCC2)cc1OC is listed with 0.81	0.77
Cn1c(=O)c2c(ncn2CC(=O)N2CCN(c3cccc(Cl)c3)CC2)n(C)c1=O is listed with 0.48	0
CC(Sc1ncnc2c1cnn2-c1ccccc1)C(=O)NCC1CCCO1 (centres undefined) is listed with 0.69	-0.04

The listing picks up, repeating the five entries before the break.
SMILES	KCNQ2 enhance	KCNQ2 enhance baseline
CC(=O)c1ccc(N2C(=NC(=O)C3CCCO3)SC3CS(=O)(=O)CC32)cc1 (centres undefined)	0.28	-1.8
O=C(C[n+]1cc(-c2ccc(F)cc2)n2c1CCC2)OCc1ccccc1	0.89	0.39
COc1ccc(CCN(Cc2cc3cccc(C)c3[nH]c2=O)C(=O)N2CCCC2)cc1OC	0.81	0.77
Cc1ccc(-c2csc(NC(=O)c3ccc(F)cc3)c2C(=O)O)cc1	3.6	0.82
CCCCCc1nc(N)c(C#N)c(-c2ccco2)c1CCCC	0.22	0.67
CCNc1nc(N)nc(Oc2ccc(OCc3ccccc3)nn2)n1	0.8	-0.71
COc1ccccc1-c1nnc(SCC(=O)Nc2ccc(Cl)cc2Cl)o1	0.1	0.56
C=C(C)CNC(=S)N/N=C(\C)c1ccc(Cl)s1	0.3	-0.14
COc1ccc(OC)c(NS(=O)(=O)c2cccs2)c1	1.1	-0.13
O=C1/C(=C/c2ccccn2)SC(=S)N1Cc1ccccc1	0.91	-0.52
CCOC(=O)NCc1ccc2c(c1)cc(C)n2C	0.11	-1.2
CCc1nnc(NC(=O)[C@@H](NC(=O)c2cccc(S(=O)(=O)N3CCOCC3)c2)C(C)C)s1	0.73	0.29
CC(=O)Nc1ccc(NC(=O)COc2ccc(S(=O)(=O)NC(C)c3ccccc3)cc2)cc1 (centres undefined)	1.4	-0.99
CCN1C(=O)c2cccc3c(S(=O)(=O)N(C(=O)c4cccnc4)c4ccc(OC)cc4)ccc1c23	2	-0.2
O=C(NCCc1ccccn1)c1nc(Cn2ccc([N+](=O)[O-])n2)no1	0.3	-1.4
CCOC(=O)CSc1nnc(C2CCCCC2)n1C	0.2	-0.49
Cc1csc(SC(C)C(=O)NCC2CCCCC2)n1 (centres undefined)	1.4	-1.4
OC1CCCN(Cc2c3ccccc3cc3ccccc23)C1 (centres undefined)	0.1	-1.5
CC(C)C(=O)Nc1cccc(-c2cn3ccsc3n2)c1	1.3	-0.61
CCCN1CCN(C(=O)CCCNC(=O)Cn2cnc3sc(C)c(C)c3c2=O)CC1	0.25	-1.4
CC(=O)N1CC=C2C(C#N)=C(N)C(C#N)(C#N)C(C)C2C1 (centres undefined)	0.24	0.04
O=C(c1ccc2ccccc2c1)c1c[nH]cc1-c1ccccc1	0.4	0.03
CCOC(=O)c1c(NC(=O)C[n+]2ccc(Cc3ccccc3)cc2)sc(C)c1C	0.22	-0.46
COc1cnc(-c2ccccn2)nc1Sc1ccccc1Cl	0.31	-1.5
CC(C)(C)c1ccc(C(=O)NNc2cc(Cl)cc(Cl)c2)cc1	0.08	-0.1
CCCOc1ccc(C(CC(=O)O)NC(=O)C23CC4CC(CC(C4)C2)C3)cc1 (centres undefined)	1.1	0.29
CCCN1CCN(CCCNC(=O)c2ccc3c(Cl)c4c(nc3c2)CCCC4)CC1	0.82	-0.01
O=C(NCCN1CCN(c2cccc(Cl)c2)CC1)c1ccc(CSc2nc3ccncc3[nH]2)cc1	0.04	0.41
O=C(O)c1cccc2c1C(=O)N(C1CCCCC1)C2	0.43	-1.8
O=C(c1cnn2ccccc12)N1CCc2ccccc21	0.27	1.1
Cc1cccc(NC(=O)CN(C2=NC3CS(=O)(=O)CC3S2)c2ccccc2F)c1 (centres undefined)	0.67	0.72
Cc1ccc(NC(=O)NCc2cccn2C)cc1C	0.54	0.05
Nc1nnn(CC(=O)N/N=C/c2ccc(O)cc2)n1	0.51	-0.92
CC(=O)N1c2ccc(S(=O)(=O)N(C)CC(=O)N3CCCC3)cc2CC1C (centres undefined)	1.8	0.91
O=C(CSc1nnc(NC(=O)C2CC2)s1)NCc1ccc(F)cc1	0.5	-0.95
COC(=O)c1[nH]c2ccc(C)cc2c1NC(=O)CN1CCN(c2ccc(F)cc2)CC1	1.4	0.63
C/C=C(/C)C(=O)Nc1cccc(C2=NOC3(C2)C[C@H](C(N)=O)N(C(=O)c2ccc(Cl)cc2)C3)c1 (some centres undefined)	1.3	-0.11
COc1ccccc1/C=C/C=N/N1CCN(Cc2cccc3ccccc23)CC1	0.25	-0.44
COc1cccc(NC(=O)c2nn(C)cc2Br)c1	1.6	-1.8
Cc1ccc(CS(=O)(=O)CCC(=O)N2CCOCC2)cc1	1.3	-2.4
CCCCCOc1ccc(NC(=O)c2cc(SC)ccc2Cl)cc1	1.1	0.02
C=CCc1c(C)nc2cc(-c3ccccc3)[nH]n2c1=O	0.77	1.5
Nc1nonc1-n1nnc(C(=O)N/N=C/c2ccccc2F)c1CN1CCOCC1	2.4	1.1
CCOC(=O)C1=C(C)Nc2ncnn2C1c1ccccc1F (centres undefined)	0.47	2.2
CS(=O)(=O)c1ccc(Cl)c(NC(=O)COC(=O)CNC(=O)c2ccc(Br)o2)c1	0.54	-0.52

Random excerpt: 2 entries already listed.
SMILES	KCNQ2 enhance	KCNQ2 enhance baseline
COc1ccccc1/C=C/C=N/N1CCN(Cc2cccc3ccccc23)CC1	0.25	-0.44
O=C(NCCN1CCN(c2cccc(Cl)c2)CC1)c1ccc(CSc2nc3ccncc3[nH]2)cc1	0.04	0.41

Additional records.
SMILES	KCNQ2 enhance	KCNQ2 enhance baseline
CC(C)(C)c1ccc2c(c1)OCC(C(=O)O)O2 (centres undefined)	0.46	-0.45
CC1=CCC2C(=O)N(c3cc(C)on3)C(=O)C2C1 (centres undefined)	2.2	-0.6
Cc1cnn(-c2ccc3nnc(-c4ccc(Br)cc4)n3n2)c1	0.35	0.16
Cc1ccc(CCNC(=O)C2CCN(S(=O)(=O)c3ccc4c(c3)NC(=O)C(C)S4)CC2)cc1 (centres undefined)	1.4	-0.6
COc1ccc(NC(=O)C(CC(=O)O)Cc2ccccc2)cc1 (centres undefined)	0.86	0.32
Cc1cc2oc(=O)c(CC(=O)O)c(C)c2c2occ(C(C)(C)C)c12	4	-0.42
COc1cccc(C2C(C(N)=O)=C(C)Nc3nc(-c4ccccc4Cl)nn32)c1 (centres undefined)	0.03	-0.03
Cc1nc(-c2ccccc2)sc1C1(C)CC(c2ccc(C#N)cc2)=NO1 (centres undefined)	0.03	-0.02
CCOc1ccccc1N(C(=O)Nc1cccc(Cl)c1)C1=NC(C)CS1 (centres undefined)	0.03	0.42
Cc1nn(-c2ccccc2)c2c1C(c1ccc([N+](=O)[O-])cc1)N1C(=N2)C(=O)Nc2ccccc21 (centres undefined)	3.6	0.15
Cc1ccc(CS(=O)(=O)CCC(=O)NCCN(C)Cc2ccccc2)cc1	0.7	0.55
Cc1ccc(C)c(N2CCN(C(=O)C3CCC3)CC2)c1	0.38	0.02
COc1cc(OC)cc(C(C(=O)NC2CCCCC2)N(C(=O)c2ccno2)c2ccccc2)c1 (centres undefined)	0.87	-0.03
C=CCOc1ccc(CN(C)C(=O)CNC(=O)c2ccc(-c3ccccc3)cc2)cc1	1.5	0.16
Cc1cc(OC(C)C(=O)NCc2ccccn2)c2c(C)c(Cc3ccccc3)c(=O)oc2c1 (centres undefined)	0.01	0.33
COc1ccc(NC(=O)N2CCCc3ccccc32)c(OC)c1	0.01	-0.25
O=S(=O)(/N=C(/Nc1ccccn1)c1ccccc1)c1ccc(Cl)cc1	0.01	-0.67
Cc1cc(C=O)c(C)n1-c1cccc(C(=O)O)c1	0.74	-2.4
Cn1c(CC(=O)Nc2ccccc2)nnc1SCC(=O)NC1=NCCS1	0.51	1.2
Cc1ccc2[nH]c(=O)c(CN(CCCO)C(C)c3nnnn3Cc3ccco3)cc2c1 (centres undefined)	1	0.11
O=C(COC(=O)c1ccc(Br)cc1)NC1CCCC1	0.3	-0.18
O=C(Nc1ccc(NC(=O)c2ccccc2Cl)nc1)c1ccco1	1.2	-0.2
CCc1ccc(NS(=O)(=O)c2ccc(C)c(C(=O)N3CCOCC3)c2)cc1	0.56	2.2
Cc1ccc(S(=O)(=O)c2cn(CC(=O)Nc3ccccc3)c3ccc(F)cc3c2=O)cc1	0.28	-0.97
Clc1ccccc1CSc1nnc([C@@H]2CCCN2)o1	1.1	-0.47
Cc1cccc(-c2c3c(=O)n(C)c(=O)n(C)c3cn2CCO)c1	0.98	-0.67
CCOC(=O)c1cc(-c2cccc([N+](=O)[O-])c2)on1	0.68	-0.28
Cc1ccc(S(=O)(=O)Cn2nnnc2CN2CCN(C(=O)c3ccco3)CC2)cc1	0.59	0.02
CCOc1ccc(CCNC(=O)C2CCC(=O)N2C2CCCCC2)cc1OCC (centres undefined)	1.4	-0.73
COC(=O)c1ccc2c(=O)n(CCCCCC(=O)NCc3ccccn3)c(=O)[nH]c2c1	1.8	0.32
COc1ccc(-n2c(SCC(=O)N3CCCCC3)nnc2-c2cccnc2)cc1	0.67	-1.2
c1cc2cn[nH]c2cc1NC1CCCCCC1	0.93	-0.08
S=C(NCc1ccco1)Nc1ccc(N2CCOCC2)cc1	0.96	-2.5
CCCCN(CC)c1nc(N)c2c(N)nc(OCC)cc2c1C#N	0.09	1.1

Screens from PubChem.

Not all compounds are listed; the hit share may differ from the screen's.
